Screening results from PubChem.
ALR inh: inhibitors of human sulfhydryl oxidase ALR; inhibition, % (test concentration not listed); AID 485317; purified ALR, DTT oxidation, H2O2 HRP-luminol luminescence; P55789; 3.8% of 290,000 active;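 active means mean and each replicate at 75% or more; inconclusive means only one of the two met; inactive means neither met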;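 further: stock transfer was 7.5 nL into about 7.5 µL; 0% = neutral wells and 100% = wells with inactivated enzyme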
Target sequence (P55789 whole entry, looked up): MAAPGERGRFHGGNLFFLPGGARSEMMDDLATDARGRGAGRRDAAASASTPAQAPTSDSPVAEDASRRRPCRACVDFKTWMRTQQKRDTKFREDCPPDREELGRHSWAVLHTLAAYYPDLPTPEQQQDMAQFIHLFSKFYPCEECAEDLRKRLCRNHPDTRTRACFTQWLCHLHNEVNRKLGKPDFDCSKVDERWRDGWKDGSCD
FGF22 binding: binders of recombinant human FGF22 by thermal shift; Q9HCT0; SYPRO orange fluorescence; percent of sucrose octasulfate shift, DMSO zero; calls only at 9.99 µM; 1.5% of 340,000 active;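 active means melting point raised past a set limit in the mean and every replicate; inconclusive means no clear call; three in four hits are not shown here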
Target sequence (Q9HCT0 whole entry, looked up): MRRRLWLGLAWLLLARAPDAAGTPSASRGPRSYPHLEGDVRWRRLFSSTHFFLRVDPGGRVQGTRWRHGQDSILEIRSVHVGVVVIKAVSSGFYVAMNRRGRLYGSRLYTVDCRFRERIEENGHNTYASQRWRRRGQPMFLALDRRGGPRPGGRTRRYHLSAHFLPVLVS
AF4-AF9 inh: blocks AF4 peptide binding to human AF9. AID 651704. 0.47% of 350,000 active. AlphaScreen, biotin-AF4 peptide binding to FLAG-AF9. inhibition, % at 10 µM;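 active means every replicate reaching a set inhibition limit, whatever the replicate mean, cut at about 25% in these data; inconclusive means mean inhibition reaches that limit but some replicates miss it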;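 further: 0% = plate neutral control median and 100% = total signal loss; the record names both 10 and 1 µM as test concentration; the first replicate is given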
E coli growth: inhibitors of Escherichia coli growth; OD600 absorbance (no concentration beside the values); OD600, 23 h; hits give low values; 0.21% of 330,000 active;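 active means OD600 absorbance below the run mean of sample wells minus 3.6 SD, in any replicate, cut at about 0.56 in these data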;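 further: stock transfer was 300 nL into about 60 µL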
HNF4A DNA FP: change in binding of human HNF4 alpha to DNA | P41235 | HNF4a-FITC DNA binding, fluorescence polarization, 1 h | activity change, % at 10 µM | 0.3% of 360,000 active | AID 1224865; in the data active means activity change above about 30%, passing the limit was not always enough;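 further: controls were the assay level and a saturating level of protein; the project sought stronger binding though the title names inhibitors; some compounds called inactive have numbers as strong as hits; positive values seem to mean higher polarization but the record does not say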
Target sequence (P41235 whole entry, looked up): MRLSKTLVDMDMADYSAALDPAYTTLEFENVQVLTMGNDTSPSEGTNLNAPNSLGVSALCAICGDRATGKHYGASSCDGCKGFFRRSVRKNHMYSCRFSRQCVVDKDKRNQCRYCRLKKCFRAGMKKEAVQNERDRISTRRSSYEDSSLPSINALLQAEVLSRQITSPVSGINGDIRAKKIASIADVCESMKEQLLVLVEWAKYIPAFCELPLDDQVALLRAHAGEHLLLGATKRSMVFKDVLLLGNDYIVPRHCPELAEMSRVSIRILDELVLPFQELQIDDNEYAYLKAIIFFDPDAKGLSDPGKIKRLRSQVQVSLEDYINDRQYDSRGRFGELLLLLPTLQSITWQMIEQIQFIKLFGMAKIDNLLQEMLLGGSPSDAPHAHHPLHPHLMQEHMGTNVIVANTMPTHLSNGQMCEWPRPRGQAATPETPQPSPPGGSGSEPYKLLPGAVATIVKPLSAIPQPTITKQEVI
Vif A3G: HIV-1 Vif–A3G interaction blockers – biochemical, TR-FRET, GST-Vif 1-94, biotin-A3G peptide, dose response retest, primary screen (AID 1117319) | TR-FRET GST-Vif / biotin-A3G peptide binding; higher % means a stronger effect; test concentration not given here; strong numbers were not always called active | one-dose inhibition, %; IC50 in µM for titrated hits | 0.57% of 260,000 active;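 active means above the screen mean plus three standard deviations and confirmed in dose response; inconclusive means results disagree or hit not tested in dose response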;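 further: Vif residues 1-94 fused to GST binding biotinylated APOBEC3G peptide 110-148; 0% = full assay without inhibitor and 100% = GST in place of GST-Vif; retest series ran down from 100 µM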
Ecoli rRNA inh: inhibitors of bacterial rRNA selective over humanized ribosomes. E. coli WT GFP vs humanized-ribosome RFP mutants, fluorescence, 24 h; hits give low values; DMSO median 0, no signal -100. GFP signal change (wild-type ribosome), % (test concentration not listed). 1.6% of 350,000 active;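 active means significant combined selectivity score with lowered wild-type GFP, culture density cut under 30%, mutant RFP and density less affected; inactive means any of these conditions unmet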; further: one replicate is shown; some compounds called inactive have numbers as strong as hits
Ecoli rRNA inh OD600: further read-out of Ecoli rRNA inh, marked with its call; OD600 change, %; measured here: OD600 growth;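 optical density of the mix in the first replicate; 0 = DMSO median and -100 = no signal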
Ecoli rRNA inh RFP: also measured in Ecoli rRNA inh; calls as there; RFP signal change, %; measured here: RFP humanized mutant strains;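 first replicate; 0 = DMSO median and -100 = no signal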
Active calls of the source: *; i = inactive; ? = inconclusive; / = not tested or not shown; + = active, no number; & = joins results of further samples. Only part of the results is shown (hit frequency here may not be typical).

SMILES	ALR inh	FGF22 binding	AF4-AF9 inh	E coli growth	HNF4A DNA FP	Vif A3G	Ecoli rRNA inh	Ecoli rRNA inh OD600	Ecoli rRNA inh RFP
CCC(=O)N1[C@@H](CO)[C@@H](c2ccc(-c3cccc(OC)c3)cc2)C12CN(C(C)=O)C2	/	i	-2.9	/	/	/	-3.8	-2.9	-2.3
Cc1ccc(S(=O)(=O)Nc2ccccc2CNC2CCCCC2)cc1	0.6	i	-1.9	0.68	1.5	-1.3%	8.8	6.1	-3.5
COC(=O)CCCC1=CC2=C(c3ccccc3)C(=O)C(C)(OC(=O)C3CCCC3)C(=O)C2=CN1CC1CC1 (stereo not drawn)	-27.8	i	2.4	0.698	-1.7	?	4.2	0.4	6.4
O=C(Nc1ccc(Cl)cc1)C1CCCC1	2.7	i	2.3	0.699	0.2	/	4.9	3.0	-4.3
CCCNC(=O)[C@@H]1[C@@H](CO)[C@@H]2Cn3c(ccc(-c4cccnc4)c3=O)[C@@H]2N1CCC	/	i	1.8	/	/	/	-0.4	0.5	-0.9
Cc1ccc(NC(=O)CN(C)C(C)C(=O)Nc2ccc(S(=O)(=O)N3CCCC3)cc2)cc1 (stereo not drawn)	-1.8	+	0.2	0.63	0.6	-2.2%	1.0	-1.4	1.9
CC(=O)Nc1ccc(NS(=O)(=O)c2cc(-c3n[nH]c(=O)c4ccccc34)ccc2C)cc1	/	i	3.5	0.829	2.0	-5.3%	-9.5	-20.6	8.7
COc1ccc(Cl)cc1C(=O)NNC(=O)COC(=O)c1cccs1	-2.8	i	1.8	0.682	-0.5	/	2.5	6.5	0.4
CCCCn1c(=O)nc2n(-c3ccccc3C)c3ccccc3cc-2c1=O	6.5	i	3.5	0.724	-0.2	7.7%	12.5	0.3	8.6
COc1ccc(/C(CC2OC(=O)c3ccccc32)=N\NC(N)=O)cc1 (stereo not drawn)	-4.5	i	0.6	/	3.2	-6.1%	7.3	5.0	4.8
COc1cc(NC(=O)COC(=O)CC(NC(C)=O)c2ccccc2)cc(OC)c1 (stereo not drawn)	-2.5	i	-1.8	0.665	0.4	/	2.3	5.8	-1.5
O=C(COC(=O)CCN1C(=O)C2CC=CCC2C1=O)NCCc1ccccc1 (stereo not drawn)	1.7	i	-1.3	0.676	-1.7	/	1.0	5.6	-0.8
COC(=O)c1cc(OC)c(OC)cc1NC(=O)c1ccccc1C	-7.7	+	1.1	0.735	0.1	-4.5%	-9.2	-3.5	-2.3
CC1=CC(C)(C)N(C(=O)c2ccc(F)cc2)c2cc3c(cc21)OCO3	97.9*	/	/	0.695	1.3	8.3%	/	/	/
C[C@H]1CN([C@@H](C)CO)C(=O)c2cc(NS(=O)(=O)c3ccc(Cl)cc3)ccc2O[C@@H]1CN(C)Cc1ccc(Cl)c(Cl)c1	/	i	-0.1	/	/	/	0.7	-4.2	6.2
C[C@H]1CN([C@@H](C)CO)C(=O)c2cccc(NS(C)(=O)=O)c2O[C@H]1CN(C)C(=O)Nc1ccc(F)cc1	/	i	-3.0	/	/	/	1.3	5.1	1.6
C[C@H](CO)N1C[C@H](C)[C@@H](CN(C)Cc2ccncc2)Oc2cc(C3=CCCC3)ccc2S1(=O)=O	/	i	-5.3	/	/	/	4.9	5.3	-1.6
CCC(=O)N1C[C@H](C)[C@H](OC)CN(C)C(=O)c2cc(NC(=O)C3CC3)ccc2OC[C@@H]1C	/	i	2.9	/	/	/	0.4	2.1	-1.9
CC1(C)OC2OC(COC(=O)c3ccccc3)C3OC(C)(C)OC3C2O1 (stereo not drawn)	0.7	i	-16.4	0.63	-1.1	11.1%	8.9	3.7	0.2
CC(=O)C1=C(O)CCC1=NCCc1ccccc1	-6.0	i	5.3	0.69	-1.5	?	8.3	-0.4	3.5
CCOC(=O)N1CCN(C(=O)C[C@@H]2C[C@@]3(C(=O)OCC)CCCC=C3N(Cc3ccccc3)C2=O)CC1	/	i	-1.4	/	5.2	/	-0.9	-1.3	-2.8
CNC[C@H]1Oc2c(cccc2N(C)C)C(=O)N([C@H](C)CO)C[C@H]1C	/	i	-2.3	/	/	/	1.2	16.9	-0.4
NNC(=O)c1cccc(COc2cccc(Br)c2)c1	-4.8	/	/	0.62	1.5	11.2%	/	/	/
Cc1cccc(OCC(=O)Nc2ccccc2-c2ccccc2)c1	-0.8	/	/	0.644	2.4	-3.1%	/	/	/
C=CCn1c(SCC(=O)Nc2cc(C)nn2-c2ccccc2)nnc1C1CCCCC1	-8.4	/	/	0.706	2.9	-1.6%&-11.4%	/	/	/
(further entries)
SMILES	ALR inh	FGF22 binding	AF4-AF9 inh	E coli growth	HNF4A DNA FP	Vif A3G	Ecoli rRNA inh	Ecoli rRNA inh OD600	Ecoli rRNA inh RFP
COc1c(Cl)cc(Cl)cc1C(=O)Nc1ccc(NC(=O)c2cccs2)cc1	-3.4	/	/	0.699	-5.5	26.2%	/	/	/
COc1ccc(C(CNC(=O)C(=O)NC2CCCC2)N2CCN(C)CC2)cc1 (stereo not drawn)	-1.0	i	-19.7	0.604	0.1	5.8%	13.1	8.9	-0.9
Nc1nc(Nc2ccccc2F)sc1C(=O)c1ccccc1	28.0	i	0.6	0.663	-2.5	/	-39.5	-57.5	2.9
Cc1ccc(NC(=O)CSc2ccccc2NC(=O)c2cccc(Cl)c2)cc1Cl	-28.4	i	0.4	0.703	-1.8	/	12.9	9.0	1.6
CC(C)c1nnc(NC(=O)CC23CC4CC(CC(C4)C2)C3)s1	/	i	-2.4	0.791	-0.5	/	1.4	0.7	-8.1
COc1ccc2[nH]c3c(c2c1)CCN1C(=O)C(CC(=O)NCCC2=CCCCC2)C[C@H](C(=O)N2CCCCC2)[C@@]31C (stereo partly drawn)	/	/	6.8	0.674	1.3	7.4%	-6.4	-24.0	-5.2
Cc1cc(NC(=O)c2cccc([N+](=O)[O-])c2)no1	/	i	-0.1	0.719	-0.4	/	2.8	4.3	0.3
CCOc1cc(NC(=O)CC(C)C)c(OCC)cc1NC(=O)CCn1nnc2ccccc21	-10.0	/	/	0.661	0.2	-6.2%	/	/	/
O=C(CSc1n[nH]c(=O)[nH]c1=O)Nc1c(Cl)cc(Cl)cc1Cl	-1.5	i	0.4	0.718	-1.6	-7.9%	6.1	12.3	-1.1
CCOC(=O)C1=C(C)N(C[C@@H]2CC[C@@H](Cc3ccc(-c4ccccc4)cc3)O2)C(=O)NC1c1ccc(Cl)cc1 (stereo partly drawn)	/	i	2.7	0.716	3.1	-3.5%	13.4	8.0	-2.3
CC(=O)c1ccc(OCC(O)CNCc2ccc3c(c2)OCO3)cc1 (stereo not drawn)	3.2	i	-5.5	0.673	0.5	-2.7%	3.9	-2.2	1.8
Cc1sc2nc(-c3cccnc3)nc(Cl)c2c1-c1ccccc1	2.6	/	/	0.684	4.8	-5.4%	/	/	/
CC(=O)N1CCc2c(sc(NC(=O)C3CCCCC3)c2C(N)=O)C1	/	i	-1.4	0.725	-2.9	/	-0.6	-1.5	4.4
CCOc1cc(CNCc2ccccn2)ccc1OCC(=O)NC1CCCCC1	-4.4	/	/	0.699	0.7	8.1%	/	/	/
COc1cc(NS(=O)(=O)c2ccc(OC)c(OC)c2)cc(OC)c1	-6.3	/	/	0.685	-0.8	18.1%	/	/	/
COc1ccc(CCNC(=O)CN(C)S(=O)(=O)c2ccc3c(c2)CCC(=O)N3)cc1OC	-1.1	i	-0.5	0.71	-2.0	-0.8%	4.0	2.2	-6.8
CC(C)n1c(C(=O)OCC(=O)NCc2ccc3c(c2)OCO3)cc2occc21	-15.0	/	/	0.692	4.7	27.5%	/	/	/
COc1ccc(Cl)cc1NC(=O)c1ccc2c(SCC(=O)O)c3c(nc2c1)CCCC3	11.4	i	-4.6	0.683	-1.0	/	0.8	2.9	5.2
Cc1cc(C(=O)CSc2nnc3ccccn23)c(C)n1-c1ccccc1	-1.4	/	/	0.707	0.3	-4.4%	/	/	/
CCOC(=O)c1cc2c(c(-c3cccc(-c4cccc(OC)c4)c3)n1)[C@H](CCO)N(S(=O)C(C)(C)C)C2 (stereo partly drawn)	/	i	0.7	/	/	/	-2.1	-4.7	4.3
N#C[C@H]1[C@@H](c2ccc(C#Cc3ccccc3F)cc2)[C@H](CO)N1C(=O)c1cccnc1	/	i	-1.9	/	/	/	-56.4	-77.5	-17.1
CC(C)CCN1C(=O)c2cccc3c(N)ccc(c23)C1=O	3.8	i	-57.1	/	-113.5	/	101.0	-32.9	-0.2
Cc1cc(C(F)(F)F)cc(NNC(=O)NC(=O)c2c(F)cccc2Cl)n1	/	i	-0.4	0.688	1.3	3.2%	4.9	5.0	1.6
CN(C)CC#Cc1ccc([C@@H]2[C@@H](CO)N3CCCCN(C(=O)CN(C)C)C[C@@H]23)cc1	/	i	-1.4	/	/	/	4.6	3.7	-4.1
CC=Cc1ccc2n(c1=O)C[C@@H]1N[C@H]2[C@H](C(=O)NCCc2ccccc2)[C@H]1CO (mixture of isomers)	/	i	-2.0	/	/	/	4.5	7.4	1.5
Carrying on:
SMILES	ALR inh	FGF22 binding	AF4-AF9 inh	E coli growth	HNF4A DNA FP	Vif A3G	Ecoli rRNA inh	Ecoli rRNA inh OD600	Ecoli rRNA inh RFP
CCCNC(=O)C[C@H]1CC[C@H]2[C@@H](COc3ccc(NC(=O)Cc4ccccc4)cc3C(=O)N2C)O1	/	i	-0.1	/	/	/	0.4	-0.6	-2.8
NC(=O)CS(=O)(=O)c1nc2ccccc2n1Cc1ccccc1F	-5.9	/	/	0.712	2.6	-1.8%	/	/	/
Cc1nc(-c2ccccn2)nc(SCC(=O)c2ccccc2)c1Cl	14.9	i	-5.2	0.649	8.7	12.4%	-22.6*	1.9*	0.5*
C[C@H]1CN([C@@H](C)CO)C(=O)c2cc(C#CC3CCCC3)cnc2O[C@@H]1CN(C)S(C)(=O)=O	/	i	-2.5	/	/	/	2.7	-1.7	-0.3
O=C(NCc1cccnc1)c1ccc2c(c1)OCO2	-16.4	/	/	0.661	-0.3	-2.1%	18.0	10.8	-1.0
O=C(O)/C=C/c1ccc(S(=O)(=O)N2CCCCCC2)cc1	-1.7	i	-1.0	0.655	-9.6	0.7%	3.4	-2.3	-1.9
CSc1nsc(SCc2ccc(Cl)cc2)n1	-1.5	i	-16.8	0.73	-1.0	3.5%	-42.7*	-19.0*	10.1*
COc1cc(/C(C)=N/NC(=O)Cc2c(C)[nH][nH]c2=O)ccc1O	99.2*	i	-6.7	/	0.8	/	7.8	4.5	-2.7
Cc1cccc(C)c1NC(=O)CN1CCN(C(=O)C2CCC2)CC1	/	i	1.6	0.675	-0.8	-2.4%	3.8	5.0	-2.4
COc1c(C)cc(Br)cc1C(=O)NC(=S)Nc1ccc(Cl)c(C(=O)O)c1	-11.1	i	-5.5	0.699	0.0	-9.1%	-45.1	-73.4	-10.9
Cc1cc(=O)oc2cc(OCC(=O)OCC(=O)Nc3ccccc3Br)ccc12	-4.6	i	6.5	0.692	2.6	-31.0%	-6.0	-1.3	0.9
CCCNC(=O)C[C@H]1CC[C@@H]2[C@@H](COc3ccc(NC(=O)c4cccc(C(F)(F)F)c4)cc3C(=O)N2C)O1	/	i	-0.3	/	/	/	-1.2	3.2	0.3
N#CC1=C(C2CC2)CC(c2ccccc2)C(C#N)=C1N (stereo not drawn)	3.7	/	/	0.711	2.4	-0.7%	/	/	/
COC(=O)c1c(NC(=O)COc2ccc(Cl)cc2)sc2c1CC(C)(C)NC2(C)C	-18.0	i	1.5	0.659	15.5	-103.8%	6.9	1.6	0.2
CC(=O)Nc1ccc(NC(=O)CSc2ccc(-c3ccc4c(c3)OCO4)nn2)cc1	-9.6	/	/	/	-0.9	-5.4%	/	/	/
CC(C)[C@H](NS(=O)(=O)c1ccccc1)C(=O)Nc1ccccc1N1CCOCC1	-1.2	i	1.5	0.702	-1.3	/	-3.0	-8.4	6.4
